GPR35 antagonists = GPR35 antagonists blocking zaprinast-driven arrestin recruitment, primary screen, imaging, U2OS, beta-arrestin-GFP, zaprinast agonist (AID 2058). inhibition, % at 10 µM, or IC50 in µM where a hit was titrated. U2OS GPR35 beta-arrestin-GFP translocation imaging, zaprinast antagonism; higher % means a stronger effect. 290,000 compounds, 0.052% hits. G-protein coupled receptor 35 (Homo sapiens);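 active means inhibition of at least 50% with at least 30 cells and total cytoplasm GFP at most 10,000,000; inconclusive means under 30 cells or total GFP of 10,000,000 plus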
KOR beta-arrestin-1 = KOR antagonists, beta-arrestin recruitment, cell-based, luminescence, uHTS (AID 1778). Kappa-type opioid receptor (Homo sapiens). KOR beta-arrestin recruitment, luminescence, antagonist mode; higher % means a stronger effect. inhibition, % at 10 µM; hits with a dose series show IC50 in µM. 290,000 compounds, 0.091% hits; in the data active means inhibition above about 50%; further: strong numbers were not always called active
KOR beta-arrestin-2 = KOR agonists, beta-arrestin recruitment, primary screen, cell-based, luminescence, uHTS (AID 1777); KOR beta-arrestin recruitment, luminescence; higher % means a stronger effect; activation, % at 10 µM; hits with a dose series show EC50 in µM; 280,000 compounds, 0.02% hits; in the data active means activation above about 50%, passing the limit was not always enough; further: a part of the inactive calls stands beside numbers as strong as those of hits
GPR55 antagonists = GPR55 antagonists blocking LPI-driven arrestin recruitment, primary screen, imaging, U2OS, beta-arrestin-GFP, LPI agonist (AID 2013). G-protein coupled receptor 55 (Homo sapiens). U2OS GPR55 beta-arrestin-GFP translocation imaging, LPI antagonism; higher % means a stronger effect. one-dose inhibition, % at 10 µM; IC50 in µM for titrated hits. 290,000 compounds, 0.13% hits;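 active means spots per cell inhibited over 60%, with over 100 cells counted and total cytoplasm intensity under 500,000; inconclusive means wells with under 100 cells, flagged as likely toxic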;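 further: U2OS cells stably carrying GPR55 and arrestin-GFP stimulated by 5 µM LPI near EC80; imaged beta-arrestin-GFP aggregate spots per cell after agonist stimulation; plate controls were LPI-stimulated DMSO wells for no effect and DMSO wells without LPI for full effect; some results filed as inactive read as strong as hits; confirmed hits need IC50 under 10 µM and bright autofluorescent wells are also inconclusive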
Dengue-2 NS5 capping = Dengue-2 NS5 methyltransferase inhibitors, primary screen, biochemical, confirmation dose response (AID 588689); Dengue-2 NS5 methyltransferase capping enzyme assay, biochemical; higher % means a stronger effect; one-dose inhibition, % at 25 µM; IC50 in µM for titrated hits; 340,000 compounds, 0.3% hits; in the data active means a potency from the dose series; inconclusive means inhibition above about 29% without an active follow-up result
HIV peptide binding = inhibitors of HIV fusion peptide binding, primary screen, biochemical, uHTS, fluorescence dequenching (AID 1986); inhibition, % at 20 µM; hits with a dose series show IC50 in µM; 290,000 compounds, 0.3% hits; cell-free peptide binding, fluorescence dequenching, 30 min; higher % means a stronger effect; in the data active means inhibition mostly above about 52%, no sharp cut-off; inactive means mostly below about 76%; further: some results filed as inactive read as strong as hits
West Nile virus CPE = West Nile virus antiviral activity, cell-based, CPE readout (AID 1621); CPE inhibition, % at 10 µM, or IC50 in µM where a hit was titrated; West Nile virus-infected cells, CPE inhibition; higher % means a stronger effect; 290,000 compounds, 0.02% hits; in the data active means a potency from the dose series; inconclusive means CPE inhibition mostly from about 3.7% at the one dose, without a potency; inactive means the rest, 99 in 100 with CPE inhibition below about 2.2%; further: strong numbers were not always called active
GPR55 activation = GPR55 agonists via beta-arrestin recruitment, primary screen, imaging, U2OS cells, beta-arrestin-GFP redistribution (AID 1961); G-protein coupled receptor 55 (Homo sapiens); U2OS GPR55 beta-arrestin-GFP redistribution imaging; higher % means a stronger effect; activation, % at 10 µM; hits with a dose series show EC50 in µM; 290,000 compounds, 0.048% hits;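 active means activation above 40% with more than 50 cells counted in the well; inconclusive means wells holding fewer than 50 cells, flagged as toxic or sparse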;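 further: U2OS osteosarcoma cells stably expressing GPR55 and beta-arrestin-GFP; plate controls were DMSO negative control for no effect and LPI positive control for full effect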
Dengue-2 NS5 capping pilot replicate = further read-out of Dengue-2 NS5 capping, marked with its call; inhibition, %; measured here: pilot screen replicate inhibition
The depositor's hits bear a star; ? = inconclusive; / = not tested or not shown; & = joins results of further samples; [ ] = remark or other dose.

SMILES	GPR35 antagonists	KOR beta-arrestin-1	KOR beta-arrestin-2	GPR55 antagonists	Dengue-2 NS5 capping	HIV peptide binding	West Nile virus CPE	GPR55 activation	others
O=C(COc1ccc(Cl)cc1Cl)Nc1ccc(C(=O)Nc2ccccc2C(=O)O)cc1	-15.7%	-51.4%	20.4%	-10.1%	3.9%	9.54µM*	0.2%	0.3%
COc1ccc2cc3c(N)nn(C(=O)c4cccc(F)c4)c3nc2c1	-3.1%	-10.4%	-2.3%	-22.5%	-5.3%	-0.9%	0.0%	-0.1%
O=C(NCc1ccccc1)C1=C[C@@H](c2csc3ccccc23)C[C@@H](OCCCCO)O1	37.8%	-3.1%	-3.2%	1.8%	/	3.5%	0.2%	0.1%
CCOc1ccc(N=C2NC(=O)S/C2=C\c2ccc(N(C)C)cc2)cc1	4.8%	0.6%	-0.8%	1.2%	?	-0.8%	/	-0.1%
Cc1cccc(NC2=C/C(=N/S(=O)(=O)c3cccs3)c3ccccc3C2=O)c1	-4.8%	-35.4%	23.3%	-1.3%	-2.2%	-5.2%	-0.2%	-0.3%
COc1ccccc1C(=O)Nc1nc(-c2ccc(S(=O)(=O)N3CCOCC3)cc2)cs1	-11.6%	-49.6%	5.7%	-7.5%	-1.6%	-1.0%	-0.3%	-0.1%
COc1cccc(C(=O)Nc2cccc(C(=O)N3CCOCC3)c2)c1	-7.8%	41.0%	-4.9%	7.1%	5.7%	1.6%	1.2%	0.1%
COC(CN(C(=O)CCl)C(C(=O)NC1CCCCC1)c1ccccc1C)OC (stereo not drawn)	2.9%	18.8%	0.8%	7.8%	4.2%	0.1%	-1.5%	-0.2%
Nc1nccc(-c2ccc(-n3cnc4ccccc43)cc2)n1	9.7%	-16.0%	-1.4%	-2.2%	-1.5%	-1.2%	-0.2%	0.2%
Cn1c(SC2=CS(=O)(=O)c3ccccc32)nc2ccccc21	15.3%	-2.4%	2.1%	11.7%	/	-1.9%	?	-2.3%

Two successive entries already listed, for reference:
SMILES	GPR35 antagonists	KOR beta-arrestin-1	KOR beta-arrestin-2	GPR55 antagonists	Dengue-2 NS5 capping	HIV peptide binding	West Nile virus CPE	GPR55 activation	others
Nc1nccc(-c2ccc(-n3cnc4ccccc43)cc2)n1	9.7%	-16.0%	-1.4%	-2.2%	-1.5%	-1.2%	-0.2%	0.2%
Cn1c(SC2=CS(=O)(=O)c3ccccc32)nc2ccccc21	15.3%	-2.4%	2.1%	11.7%	/	-1.9%	?	-2.3%

More records
SMILES	GPR35 antagonists	KOR beta-arrestin-1	KOR beta-arrestin-2	GPR55 antagonists	Dengue-2 NS5 capping	HIV peptide binding	West Nile virus CPE	GPR55 activation	others
S=C(NCCc1ccccc1)Nc1cccc2cnccc12	5.0%	-37.6%	-0.5%	-11.2%	9.1%	-2.2%	-1.6%	0.2%
O=C(O)c1c(NC(=O)c2cccc3ccccc23)sc2c1CCC2	-4.4%	-92.4%	11.5%	0.9%	28.1%	34.8%	0.6%	-0.1%
COC(=O)c1ccccc1NC1=C/C(=N\S(=O)(=O)c2cccs2)c2ccccc2C1=O	-3.3%	14.8%	-0.6%	4.5%	0.4%&7.3%	-2.4%	?	-0.1%
COc1ccc(Cc2[nH]n3c(=O)c(Cl)c(C)nc3c2-c2ccccc2)cc1	-4.9%	48.6%[20 µM]	-0.9%	5.1%	0.0%	0.4%	0.6%	-0.1%
Cc1scc(C(=O)N/N=C/c2ccc([N+](=O)[O-])o2)c1C	-9.3%	2.7%	-3.0%	-10.9%	-4.7%	20.6%	0.0%	0.0%
COc1ccc(-c2cc(C(F)(F)F)nc(S(=O)(=O)CCCC(=O)Nc3cccc(O)c3)n2)cc1OC	-9.3%	9.8%	-2.0%	21.8%	/	-0.7%	0.0%	0.6%
O=S1(=O)Nc2c(ccc3cccnc23)-c2ccccc21	10.6%	1.3µM*	8.0%	15.9%	-2.1%	-1.9%	12.4%	0.2%
CN(Cc1ccccc1)C1=CC(=[N+]2CCCCC2)CC(C)(C)C1	-4.7%	8.1%	/	-4.5%	0.0%	-1.0%	0.4%	-0.1%
c1cc(-c2nnc3sc(C4CCCCC4)nn23)ccn1	8.7%	22.1%	0.3%	-2.1%	1.0%	3.7%	-0.1%	-0.2%
COc1ccc(CS(=O)/C(Cl)=C(/Cl)C(=O)Nc2ccc(OC)nc2)cc1 (stereo not drawn)	44.8%	5.22µM*	-9.0%	2.0%	/	-1.1%	-2.3%	-0.5%
COc1ccc(C(C(=O)NC2CCCCC2)N2CCC3(CC2)OCCO3)cc1 (stereo not drawn)	6.3%	7.4%	1.6%	10.8%	-12.2%	-0.2%	-0.2%	-0.1%
Cc1ccc(Cl)cc1N1CCN(C(=O)c2cc3c(=O)[nH]c4ccccc4c3n2C)CC1	-5.0%	-24.6%	6.5%	20.1%	-4.7%	-2.3%	-0.4%	30.6%
Cc1ccc(NC(=O)C2=C(c3ccccc3)S(=O)(=O)CCS2(=O)=O)cc1	0.0%	-16.4%	8.0%	-1.1%	>100µM*	-0.3%	0.1%	2.0%
CC(C)N1C(=O)/C(=C/c2nc3ccccc3c(=O)n2-c2ccccc2)c2ccccc21	12.1%	-0.7%	0.8%	20.8%	-13.9%	-5.6%	11.7%	0.5%
Cc1ccc(-c2nn(CCC(=O)O)cc2/C=C\C(=O)c2ccc(Br)cc2)cc1	5.4%	-10.9%[20 µM]	-4.8%	-13.0%	7.0%	48.6%	-1.1%	-0.1%
Cc1ccc(OCC(=O)c2cc(C)n(Cc3cccs3)c2C)c([N+](=O)[O-])n1	-11.0%	-17.5%[20 µM]	-2.5%	-8.2%	-8.2%	8.4%	-0.1%	-0.1%
COc1ccc(OC)c(Nc2nc(N)nc(CCl)n2)c1	-1.8%	-18.6%	7.3%	-10.7%	5.4%	2.1%	-0.8%	0.4%
N#CCc1ccc(NC(=O)c2ccc(CN3CCc4ccccc4C3)cc2)cc1	10.0%	-52.4%[20 µM]	-4.7%	0.7%	-7.8%	2.0%	-0.7%	-0.1%	Dengue-2 NS5 capping pilot replicate=0.0
Cc1ccc(NS(=O)(=O)c2ccccc2Cl)c2c1CC(C)(C)O2	18.1%	-0.8%	5.2%	26.6%	-3.2%	-0.3%	-0.9%	-0.1%
O=c1[nH]c(-c2ccccn2)nc2sc(-c3ccccc3)cc12	-24.6%	1.79µM*	-6.3%	7.7%	-1.6%	-0.6%	13.8%	1.4%
Cc1ccccc1-c1nnc(SCC(=O)NCc2ccc3c(c2)OCO3)n1C	-9.8%	19.1%	-6.9%	5.6%	0.6%	1.3%	0.2%	-0.1%
CCCCn1c(SCC(=O)NC(C)(C)C)nnc1-c1ccco1	-1.1%	-22.6%	7.7%	14.4%	1.6%	2.2%	-0.4%	-0.1%
COc1cccc(NC(=O)CN(C)CC(=O)Nc2ccc(C)c([N+](=O)[O-])c2)c1	-0.6%	5.7%	-3.8%	-13.0%	3.3%	-1.2%	0.1%	0.0%
CCOC(=O)/C=C/S(=O)(=O)c1ccc(NC(C)=O)cc1	-5.7%	10.1%	8.9%	-1.5%	-38.8%	1.6%	0.2%	-0.2%	Dengue-2 NS5 capping pilot replicate=-31.5
COC(=O)c1ccc(NC(=S)NC2CCCCC2)cc1	25.3%	-10.9%	1.9%	6.6%	-2.4%	0.3%	0.8%	0.2%
Cc1ccc(C(C)C)c(OCc2ccc(C(=O)N/N=C/c3ccc(C(=O)O)cc3)cc2)c1	14.5%	37.6%	-0.6%	19.2%	3.8%	55.8%	-0.3%	0.0%
CC(=O)NC(c1ccccc1)c1cc([N+](=O)[O-])c2cccnc2c1O (stereo not drawn)	5.7%	2.7%	-6.0%	5.7%	1.5%	2.6%	2.4%	-0.4%
C/C(=N\NC(=O)c1cc(C2CC2)nc2ccccc12)c1ccc(O)cc1O	7.0%	-66.0%	1.4%	1.8%	-1.5%	1.3%	?	0.3%
O=C(/C=C/c1ccc2c(c1)OCO2)Nc1nc(-c2ccccc2)cs1	-6.7%	-22.6%	1.2%	6.6%	-8.7%	-0.4%	-0.1%	0.2%
Cc1csc(SCC(=O)Nc2cccc3nsnc23)n1	-2.3%	32.6%	-1.5%	-5.9%	2.0%	-2.0%	0.2%	0.2%
O=[N+]([O-])c1cc(S(=O)(=O)Nc2cccc(C(F)(F)F)c2)ccc1-n1nnc2ccccc21	1.6%	-3.3%	-3.3%	2.2%	9.1%	35.4%	-0.1%	-0.1%
O=[N+]([O-])c1cc(Cl)cc(/C=N/NC(=S)Nc2cc(S(=O)(=O)N3CCOCC3)ccc2Cl)c1O	-17.0%	-9.7%	-2.3%	-1.7%	26.8%	9.41µM*	-1.6%	1.6%
O=C(CSc1nc2nc(-c3cccs3)cc(C(F)(F)F)c2c(=O)[nH]1)Nc1ccc(F)c(F)c1	-15.8%	-109.4%[20 µM]	1.0%	-8.3%	2.7%	19.0%	-1.7%	0.2%
Cc1ccc(NC(=O)C2CCCN(c3ncnc4c3nc3n4CCCCC3)C2)nc1 (stereo not drawn)	1.9%	-8.3%	0.7%	-22.7%	-4.1%	0.1%	1.5%	0.3%
CCOc1cccc(-c2c(C(=O)N/N=C(\C)c3ccccn3)nnn2-c2nonc2N)c1	4.9%	-22.7%	-3.3%	-2.2%	1.8%	0.6%	?	0.7%
Cc1ccc(-n2ncc3c2CCCC3NC(=O)c2ocnc2C)cc1C (stereo not drawn)	4.8%	-22.9%	-0.7%	2.3%	-3.2%	7.6%	-0.8%	-0.1%
CCC(=O)NC(c1cccs1)c1cc([N+](=O)[O-])c2cccnc2c1O (stereo not drawn)	-9.1%	-3.8%	-4.0%	9.3%	2.2%	20.1%	?	-0.1%
CC(C)[N+]1(C)[C@@H]2CC[C@@H]1CC(OC(=O)C(CO)c1ccccc1)C2 (stereo partly drawn)	/	/	/	/	-6.0%	/	/	/
Cc1ccc2nc(NC(=O)CSCC(=O)OCC(=O)c3ccc(Br)cc3)sc2c1	-10.1%	-76.0%	2.1%	19.9%	3.7%	3.5%	/	-0.1%
CC[C@@]1(O)C(=O)OCc2c1cc1n(c2=O)Cc2cc3c(N)cccc3nc2-1	1.2%	31.4%	-0.3%	-2.3%	4.7%	8.8%	-2.2%	-0.1%
Cc1cc(Br)ccc1SCC(=O)OC/C(O)=C(\C#N)c1nc2ccccc2[nH]1	-9.8%	61.2%	-0.8%	11.1%	-4.4%	1.2%	0.1%	-0.1%
O=C(OCn1ncc(Br)c(Br)c1=O)c1ccccc1Cl	-0.4%	33.8%	0.0%	5.7%	-55.5%	1.3%	-2.4%	0.0%

Reprinted at random: two records from the list
SMILES	GPR35 antagonists	KOR beta-arrestin-1	KOR beta-arrestin-2	GPR55 antagonists	Dengue-2 NS5 capping	HIV peptide binding	West Nile virus CPE	GPR55 activation	others
O=C(OCn1ncc(Br)c(Br)c1=O)c1ccccc1Cl	-0.4%	33.8%	0.0%	5.7%	-55.5%	1.3%	-2.4%	0.0%
Cc1ccc2nc(NC(=O)CSCC(=O)OCC(=O)c3ccc(Br)cc3)sc2c1	-10.1%	-76.0%	2.1%	19.9%	3.7%	3.5%	/	-0.1%

Only part of the results is shown; count on the stated rates, not on these rows.
